Screens deposited in PubChem BioAssay by National Center for Advancing Translational Sciences (NCATS).
SARS PLpro yeast = qHTS of Yeast-based Assay for SARS-CoV PLP; AID 485353, 2010; S. cerevisiae expressing SARS-CoV PLpro, growth rescue; control for the full effect not named in the record; hit rate 0.19% among 330,000; Potency, µM (titrated, usually from 32.9 µM), inactives show at the highest dose activity, positive = growth rescue; active means well fitted rising curve with a large enough effect; inconclusive means small, poorly fitted or top-dose-only effect; inactive means no such curve, though single readings can be large or run the other way; also: 0% is about no effect; nearly all actives have a fitted effect of over 55% in size; growth read by luminescence after 48 h
StopGo reporter = High Throughput Screening for Foot and Mouth Disease Virus Antivirals; human cells with a luciferase reporter of 2A StopGo recoding; control for the full effect not named in the record; Potency, µM (highest dose often 57.9 µM), inactives show at the top dose signal change, negative = less light; hit rate 1.2% among 410,000; active = well fitted falling curve with a large enough effect; inconclusive = small, poorly fitted or top-dose-only effect; inactive = no such curve, though single readings can be large or run the other way; tested in HEK293T cells; also: % is scaled to controls: 0 for no effect and ±100 for the full control effect; nearly all actives have a fitted effect of over 45% in size; luciferase light after 4 h
NS1 inh = qHTS Assay for Inhibitors of Influenza NS1 Protein Function | AID 2326, 2010 | Potency, µM (top dose mostly 46.1 µM), for inactives: at the top dose activity, positive = more growth | hit rate 0.4% among 270,000 | S. cerevisiae slowed by influenza A NS1, growth recovery by OD600; active means well fitted rising curve with a large enough effect; inconclusive means small, poorly fitted or top-dose-only effect; inactive means no such curve, though single readings can be large or run the other way; also: nearly all actives have a fitted effect of over 50% in size
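Compounds were scored for reversing the slow growth caused by influenza A NS1 in S. cerevisiae, measured by optical density at 600 nm. Assay medium contained 2% galactose at pH 6.0; NS1-free yeast of the same strain were the positive control.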
Marburg entry inh = qHTS for inhibitors of binding or entry into cells for Marburg Virus | Marburg virus pseudotyped entry inhibition, cell reporter; control for the full effect not named in the record; about a third of the inactives were read at about 46 µM | Potency, µM (titrated, usually from 37.8 µM), for the others: top-dose activity change, negative = inhibition, usual class: inhibitors | hit rate 1.8% among 300,000 | AID 540276, 2011; active = well fitted inhibition curve with a large enough effect; inconclusive = small, poorly fitted or top-dose-only effect, or effect the other way; inactive = flat fitted curve, though single readings scatter; tested in HEK293 cells; about a fifth of its hits are not listed in these tables; also: % is scaled to controls: 0 for no effect and ±100 for the full control effect; luciferase read-out
Cruzain inh noDet = qHTS Assay for Promiscuous and Specific Inhibitors of Cruzain (without detergent); Cruzipain (Trypanosoma cruzi), P25779; purified cruzain, Z-FR-AMC fluorescence, no detergent; Potency, µM, for the others: max response, negative = inhibition, most hits filed as inhibitors; hit rate 2.3% among 200,000; AID 1476, 2009;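 also: plate controls were enzyme without inhibitor for no effect and buffer without enzyme for full effect; nearly all actives have a fitted effect of over 40% in size; top concentration of the series not given in the record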
Target sequence (P25779 123-467 limits assumed): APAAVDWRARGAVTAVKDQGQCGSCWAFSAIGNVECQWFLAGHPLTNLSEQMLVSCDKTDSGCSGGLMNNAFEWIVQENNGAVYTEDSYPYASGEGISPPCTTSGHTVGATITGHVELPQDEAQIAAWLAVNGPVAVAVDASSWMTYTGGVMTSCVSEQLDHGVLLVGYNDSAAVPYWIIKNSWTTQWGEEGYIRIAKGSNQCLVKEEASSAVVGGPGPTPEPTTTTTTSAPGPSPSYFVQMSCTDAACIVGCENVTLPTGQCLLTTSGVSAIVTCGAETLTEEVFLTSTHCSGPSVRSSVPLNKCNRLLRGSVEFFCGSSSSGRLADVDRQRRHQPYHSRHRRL
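Detergent-free condition (0.00005% Triton X-100) in acetate buffer pH 5.5 with DTT. 1.5 nM enzyme and compound were pre-mixed 15 min, then 2 uM Z-FR-AMC substrate added; reaction progress from fluorescence change between first and third reads (60 s).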
LASV entry inh = qHTS for Inhibitors of binding or entry into cells for Lassa Virus; Lassa virus pseudotype entry inhibition, cell reporter; control for the full effect not named in the record; hit rate 1.2% among 300,000; Potency, µM (highest dose often 37.9 µM), for inactives: at the highest dose activity change, negative = inhibition, usual class: inhibitors; active means well fitted inhibition curve with a large enough effect; inconclusive means small, poorly fitted or top-dose-only effect, or effect the other way; inactive means flat fitted curve, though single readings scatter; tested in HEK293 cells; also: % is scaled to controls: 0 for no effect and ±100 for the full control effect; nearly all actives have a fitted effect of over 50% in size; luciferase read-out
Cruzain Triton = qHTS Assay for Promiscuous and Specific Inhibitors of Cruzain (with detergent); hit rate 0.43% among 200,000; Potency, µM, for inactives: max response, negative = inhibition, actives largely listed as inhibitors; purified cruzain, Z-FR-AMC fluorescence, 0.01% Triton; Cruzipain (Trypanosoma cruzi), P25779;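 also: plate controls were neutral wells for no effect and buffer without enzyme for full effect; nearly all actives have a fitted effect of over 40% in size; top concentration of the series not given in the record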
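In this qHTS format, compounds are incubated with 1.5 nM cruzain for 15 min at room temperature before 2 uM Z-FR-AMC is added. Release of AMC is followed at 360/450 nm, and progress is taken as the 60 s fluorescence difference.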
RE007 growth inh = qHTS Assay for Inhibitors of the HIV-1 protein Vpr; S. pombe RE007 Vpr strain, BacTiter-Glo ATP luminescence, 24 h; control for the full effect not named in the record; AID 651644, 2012; Potency, µM (doses to about 92.2 µM), for inactives: top-dose activity change, negative = less growth; hit rate 0.21% among 360,000; active = well fitted falling curve with a large enough effect; inconclusive = small, poorly fitted or top-dose-only effect; inactive = no such curve, though single readings can be large or run the other way;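 also: % is scaled to controls: 0 for no effect and ±100 for the full control effect; nearly all actives have a fitted effect of over 50% in size; the assay follows cell death caused by Vpr and the record does not say whether a fall means rescue or toxicity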
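Fission yeast strain RE007, carrying one chromosomally integrated HIV-1 vpr copy, was seeded at OD 0.01 in PMG+AL medium with 23 nL pinned compound. After 24 h at 30 °C and 99% humidity, viability was read by BacTiter-Glo luminescence.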
* marks the source's active call; other numbers are inactive results; ? = inconclusive; · = not tested or not shown; & = joins results of further samples; [ ] = another dose, or the depositor's remark. Unless noted, calls follow the shape of the dose curve; as a rule, active = well fitted curve in the direction sought with a large enough effect; inconclusive = small, poorly fitted or top-dose-only effect, or another doubt; inactive = no such curve, though single readings can be large; an effect the other way counts as inactive or inconclusive. Potency is read from the fitted curve at half-maximal effect. An unsorted share of the library; overall some 4.7% were active at least once.

SMILES	SARS PLpro yeast	StopGo reporter	NS1 inh	Marburg entry inh	Cruzain inh noDet	LASV entry inh	Cruzain Triton	RE007 growth inh
O=C(O)c1cccc(Cn2c(Cl)c(/C=N/NC(=O)c3ccccc3Cl)sc2=O)c1	3.6%	-19.7%	0.794µM*	17.2%	1.1%	15.3%	-4.5%	-16.1%
COc1ccc(N2CCN(CCNC(=O)c3ccc(NC(=O)C4CCCO4)cc3)CC2)cc1 (configuration not stated)	4.5%	0.1%	-6.1%	0.1%&0.1%	-13.9%	0.0%	-3.1%	-10.3%
C#CCSc1nnc(CNS(=O)(=O)c2ccc(Br)cc2)n1C	4.8%	10.2%	13.3%	·	·	·	·	-4.1%
COc1ccc(OCC(=O)Nc2nonc2NC(=O)COc2ccc(OC)cc2)cc1	-0.3%	2.2%	-3.2%	-0.8%[46.1 µM]	·	-0.4%	·	-16.5%
COc1ccc2nc(SCC(=O)NCc3ccc(F)cc3)[nH]c2c1	-0.2%	7.9%	1.5%	-11.4%	·	7.6%	·	-10.4%
NC(=O)NC(=O)CSc1nc2sc(-c3ccccc3)cc2c(=O)n1-c1ccccc1	-0.2%	?	·	4.0%[46.1 µM]	·	-9.6%[46.1 µM]	·	-20.5%
CCOc1ccc(-n2nc(CO)c(C(=O)NCCCc3ccccc3)n2)cc1	·	9.4%	·	-25.8%[46.1 µM]	8.6%	-1.1%[46.1 µM]	-1.8%	·
O=C(CN1CCN(Cc2ccc3c(c2)OCO3)CC1)NCC(F)(F)F	3.0%	5.2%	-5.6%	10.8%[46.1 µM]	·	2.2%	·	26.6%
CCc1nnc(NC(=O)CSc2nc3cc(OC)c(OC)cc3cc2C)s1	0.9%	-15.8%	9.3%	?	·	-19.7%[46.1 µM]	·	-0.2%
Cc1cc(NS(=O)(=O)c2ccc(NC(=O)CN3C(=O)NC(C)(c4ccccc4)C3=O)cc2)nc(C)n1 (configuration not stated)	-1.6%	24.9%	·	-2.3%	·	?	·	21.9%
Clc1ccc(Cc2nc(-c3cccnc3)no2)cc1	-2.9%	19.5%	-25.7%	20.2%	-4.7%	-1.2%	-2.9%	-0.1%
Cc1ccc(OCC(=O)Nc2ccc(OCc3cc(=O)n4ccsc4n3)cc2)cc1C	·	-1.0%	·	-1.3%[46.1 µM]	-2.8%	13.8%[46.1 µM]	2.9%	·
Cc1ccnc(NC(=O)COc2ccc3c(c2)CCC3)c1	·	0.0%	·	?	·	?	·	-29.2%
COc1ccccc1NC1=NC(CO)(CO)CS1	-2.8%	5.7%	?	·	·	·	·	3.2%
CN(Cc1ccccc1)C(=O)N[C@@H](Cc1ccccc1)C(=O)O	-0.1%	-16.8%	0.9%	8.4%	-4.3%	12.3%	9.3%	1.6%
c1ccc(CSc2ccc(-c3ccco3)nn2)cc1	-27.5%	1.4%	-16.7%	-13.7%	6.7%	?	-0.5%	-15.4%
Cc1ccccc1/[N+]([O-])=C/c1cccs1	-0.8%	12.0%	-5.7%	·	·	·	·	-12.3%
COc1ccc(S(=O)(=O)N2CCN(C(=O)NCc3ccc(C)cc3)CC2)cc1	-1.0%	-3.3%	-13.6%	-11.3%	·	5.2%	·	-8.6%
CCCc1nnc(NC(=O)CCC(=O)N2CCN(CCn3c(C)ccc3C)CC2)s1	3.7%	-10.9%	9.0%	6.7%[46.1 µM]	?	-9.2%	1.5%	-21.2%
Cc1cc(Oc2ccc(C(F)(F)F)cc2[N+](=O)[O-])c2c3c(c(=O)oc2c1)CCC3	-19.6%	-7.0%	11.7%	-22.3%	-7.2%	6.2%	-2.1%	-18.6%
Cc1cccc(NC(=O)NCc2cccnc2)c1C	1.8%	-7.6%	3.1%	·	·	·	·	10.0%
O=S1(=O)CCC(=Nc2ccc(Cl)cc2)c2ccsc21	0.2%	-9.3%	3.6%	7.1%	·	5.6%	·	1.2%
CC(O)c1nc2ccccc2n1Cc1ccccc1 (configuration not stated)	-6.0%	3.8%	1.2%	·	·	·	·	-13.1%
COc1ccc2nc(SCC(=O)Nc3ccccc3OC)[nH]c2c1	-1.5%	?	-2.7%	-29.0%	·	13.1%	·	3.2%
Cc1ccc([N+](=O)[O-])cc1N=C1C(=O)Nc2ccccc21	1.4%	?	-0.8%	13.7%[46.1 µM]	·	11.8%[46.1 µM]	·	-23.0%
CN(C(=O)CN1CC=C(c2ccccc2)CC1)c1c(N)n(Cc2ccccc2)c(=O)[nH]c1=O	0.0%	-7.6%	0.0%	·	·	·	·	2.5%
COc1cc(C(=O)N2CCN(c3ccccn3)CC2)cc(OC)c1OC	-4.9%	3.2%	-54.0%	14.4%[46.1 µM]	·	-11.8%[46.1 µM]	·	-2.2%
CC(=O)N1c2ccc(S(=O)(=O)NCCC(=O)NCc3ccc(Cl)cc3)cc2CC1C (configuration not stated)	-4.3%	18.5%	-1.0%	-19.7%[46.1 µM]	·	-21.6%[46.1 µM]	·	6.3%
Cc1ccc(/C=C(/C#N)C(=O)NC(C)c2ccccc2)o1 (configuration not stated)	1.6%	-7.0%	20.1%	-13.4%	-0.4%	4.4%	-7.9%	-3.7%
COc1ccc(C(c2c(O)cc(C)n(Cc3ccco3)c2=O)N2CCCCC2)cc1OC (configuration not stated)	·	-18.2%	·	·	0.8%	7.9%[46.1 µM]	2.2%	·
O=C(Nc1ccncc1)C1CC1c1ccccc1 (configuration not stated)	0.8%	?	-15.7%	?	1.0%	-9.3%	3.7%	1.1%
O=C(Nc1ccnn1C1CCN(Cc2ccccc2OC(F)F)CC1)c1cccnc1	0.9%	-0.5%	-1.7%	-21.9%[46.1 µM]	·	-0.5%[46.1 µM]	·	-6.0%
O=C(O)c1cccc(NC(=O)c2cccc(S(=O)(=O)Nc3cccc([N+](=O)[O-])c3)c2)c1	3.2%	-0.6%	22.6%	23.9%	·	15.5%	·	10.3%
COc1ccc(C2=Nc3nc(-c4ccccc4)cn3C(c3ccc(OC)cc3)C2)cc1 (configuration not stated)	-3.1%	4.6%	23.7%	·	?	·	-2.4%	0.1%
Cc1ccc(SCC(=O)NCCCN2CCOCC2)cc1	1.3%	-3.0%	-2.9%	-13.2%[46.1 µM]	8.9%	1.6%	2.4%	1.4%
CC(C)OCCCn1c(SCC(=O)Nc2ccccc2C(F)(F)F)nc2nccnc2c1=O	-0.8%	-2.0%	-2.2%	·	·	·	·	14.7%
Cc1cccc(NC(=O)c2ccc3[nH]c(=O)c(=O)[nH]c3c2)n1	0.4%	6.0%	-9.6%	·	·	·	·	-2.3%
N#Cc1ccc(C(=O)Nc2ccc(Cl)c(-c3nc4cc(Cl)ccc4o3)c2)c(F)c1	·	-10.0%	·	-3.0%[46.1 µM]	8.0%	-10.7%[46.1 µM]	-2.6%	·
COc1ccc(CCNC(=O)c2ccc(CS(=O)Cc3ccc(Cl)cc3)o2)cc1OC (configuration not stated)	5.2%	-26.3%	-19.6%	·	·	·	·	9.2%
Cc1occc1C(=O)N1N=C(C2CC2)CC1(O)C(F)(F)F (configuration not stated)	-2.3%	?	-3.6%	11.9%	1.6%	?	1.0%	-20.4%
COc1ccc(C2NCCC3(O)CCCCC23)c(OC)c1OC (configuration not stated)	-1.7%	?	-1.5%	-20.0%	-0.2%	-3.9%	8.2%	-21.3%
O=C(COc1ccc(F)cc1)Nc1ccccc1C(=O)OCc1cc(=O)n2nc(C3CC3)sc2n1	·	-22.5%	·	·	1.8%	4.8%[46.1 µM]	0.3%	·
CCc1nn(C(C)C(=O)N2CCN(c3ccc(OC)cc3)CC2)c(=O)c2cc3occc3n12 (configuration not stated)	-12.1%	?	-79.1%	·	·	·	·	-8.9%
O=S1(=O)C=C(SCCN2CCCCC2)c2ccccc21	24.6%	0.9%	3.5%	-2.8%	-5.0%	1.3%	3.1%	?
COc1cc2ccccc2cc1C(=O)Nc1ccc(C)cc1	-9.5%	46.5%[activator]	-80.9%	·	·	·	·	-17.7%
COc1cc(CN2CCNC(=O)C2CC(=O)N(C)CCN2CCOCC2)cc(OC)c1 (configuration not stated)	-15.5%	0.8%	-5.1%	·	·	·	·	-1.0%
CCOc1nc2c(c(=O)n(C)c(=O)n2C)n1Cc1ccccc1Cl	4.9%	-15.2%	-21.0%	-30.8%	5.8%	-7.3%	-0.6%	16.3%
COc1ccc(N2C(=O)CC(NNC(=O)c3cc(C)oc3C)C2=O)cc1 (configuration not stated)	-1.4%	-10.0%	0.6%	·	·	·	·	-2.9%
Cc1c(Cl)cccc1NC(=O)c1ccc2c(c1)CCN2S(=O)(=O)c1ccccc1	·	6.7%	·	10.7%[46.1 µM]	18.6%	16.5%[46.1 µM]	-2.8%	·
Cc1ccc(OCc2ccc(C(=O)NN)o2)c([N+](=O)[O-])c1	-1.1%	11.9%	10.2%	·	·	·	·	-12.6%
O=C(NCCCN1CCOCC1)/C(=C/c1ccco1)NC(=O)c1ccccc1	1.7%	10.0%	-0.9%	14.2%	·	5.8%	·	-14.4%
O=C(NCCCn1ccnc1)c1cc(-c2cccnc2)nc2ccc(Br)cc12	-2.2%	-14.2%	1.4%	4.2%[46.1 µM]	·	?	·	-10.4%
CSc1nc(C)c(C(=O)Nc2ccccc2)c(C)c1C#N	-9.2%	-17.1%	-3.5%	1.0%	-2.1%	-6.7%	-0.2%	-4.8%
CCOc1ccc(C2CC(=O)Nc3c2c(=O)[nH]c2ncnn32)cc1 (configuration not stated)	·	-12.9%	·	9.8%[46.1 µM]	9.3%	?	0.8%	·
